Screens: PubChem, several laboratories
Mtb growth = M. tuberculosis H37Rv growth inhibitors, H37Rv strain (AID 1626) | M. tuberculosis H37Rv growth inhibition; higher % means a stronger effect | one-dose inhibition, % at 10 µM; IC50 in µM for titrated hits | hit rate 0.95% among 220,000;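 active means confirmed in a dose series; inconclusive means inhibition above 80% but not taken into the dose series; inactive means below 80% or under 30% at every dose of the series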;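 further: bacteria incubated seven days before Alamar blue readout; 0% = bacteria only wells and 100% = bacteria with antibiotic wells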
YopH PTP inh = YopH (Yersinia) phosphatase inhibition; fluorescence Ex485/Em525; inhibition, %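 (about 10 µM by stock and volumes)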; hit rate 0.16% among 140,000; AID 898;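 active means inhibition of 50% or more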;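 further: controls were vehicle for no effect and minimum signal wells for full effect; inactives centre near -20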
Mtb betalactam = beta-lactam sensitization of Mtb H37Rv; M. tuberculosis H37Rv growth with meropenem, percent inhibition; hits of this screen are not shown here; inhibition, % at 25 µM; hit rate 0.27% among 330,000;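 active means about 74% or more and at least 40 points above the plate without the antibiotic, then above 30% in a dose series; inconclusive means first-round hits that could not be retested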;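 further: growth measured after seven days incubation then overnight dye step; 0% = bacteria only wells and 100% = bacteria with antibiotic; twin plates without the antibiotic show which effects depend on it; some results filed as inactive read as strong as hits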
RecA intein inh = inhibitors of M. tuberculosis RecA intein splicing | cell-free RecA intein splicing, fluorescence | inhibition, %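 (about 9 µM by stock and volumes)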 | hit rate 0.75% among 290,000; in the data active means inhibition above about 30%; inconclusive means no clear call, values can overlap the other calls;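 further: 0% = vehicle wells and 100% = reference inhibitor control wells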
Target sequence (P9WHJ3 whole entry, looked up): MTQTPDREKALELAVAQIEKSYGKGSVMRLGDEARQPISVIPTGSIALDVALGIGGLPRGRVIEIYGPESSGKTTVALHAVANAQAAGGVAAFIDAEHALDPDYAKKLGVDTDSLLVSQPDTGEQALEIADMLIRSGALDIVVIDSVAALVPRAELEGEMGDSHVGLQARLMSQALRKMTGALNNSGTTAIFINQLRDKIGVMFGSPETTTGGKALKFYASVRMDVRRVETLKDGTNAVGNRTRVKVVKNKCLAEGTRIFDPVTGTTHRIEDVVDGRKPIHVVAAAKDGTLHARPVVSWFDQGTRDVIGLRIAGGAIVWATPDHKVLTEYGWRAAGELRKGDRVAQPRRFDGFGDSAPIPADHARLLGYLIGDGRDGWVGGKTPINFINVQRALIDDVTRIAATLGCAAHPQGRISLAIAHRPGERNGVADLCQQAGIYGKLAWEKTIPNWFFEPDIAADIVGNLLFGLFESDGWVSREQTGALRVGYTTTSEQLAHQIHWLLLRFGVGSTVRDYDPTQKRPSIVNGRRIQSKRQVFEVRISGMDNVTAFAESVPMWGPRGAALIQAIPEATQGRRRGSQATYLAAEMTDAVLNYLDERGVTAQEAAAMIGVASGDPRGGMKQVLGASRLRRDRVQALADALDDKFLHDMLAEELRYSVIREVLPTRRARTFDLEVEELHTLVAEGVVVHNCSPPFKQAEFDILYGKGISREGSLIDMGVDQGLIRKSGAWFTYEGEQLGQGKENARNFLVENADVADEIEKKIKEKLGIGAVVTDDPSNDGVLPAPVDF
Arbovirus inh = arbovirus infection inhibition; inhibition, % at 10 µM; AID 1251; arbovirus infection cell-based antiviral screen; hit rate 0.37% among 200,000;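 active means inhibition from about 30%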;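 further: bluetongue infection of BSR cells; cell survival read as ATP light after 72 h; 0% = infected wells without compound and 100% = uninfected wells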
Arbovirus inh repeat = also measured in Arbovirus inh; calls as there; inhibition, %; measured here: 10K subset replicate screen; many hits read low in the repeat;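 first of two repeat runs on a subset; 0% = infected and 100% = uninfected wells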
An asterisk follows results filed as active; ? = inconclusive; / = not tested or not shown.

SMILES | Mtb growth | YopH PTP inh | Mtb betalactam | RecA intein inh | Arbovirus inh | others
Cn1c(=O)c(/C=C/c2ccc(F)cc2)nc2ccccc21 | 5% | / | / | 0.0 | -4
COc1ccc(COCC(O)CN2CC(C)OC(C)C2)cc1OC (centres undefined) | 4% | -25 | -5 | 0.1 | 14
O=C(Nc1ccc(F)c(Cl)c1)C1CCCN(c2cnccn2)C1 (centres undefined) | / | / | 1 | -3.2 | /
CC(C)(C)NC(=O)CN(C(=O)CCC(=O)Nc1nccs1)c1cccc(C(F)(F)F)c1 | / | / | 6 | 0.4 | /
Cc1ccc(C(=O)N/C(=C/c2ccco2)C(=O)NCC2CCCO2)cc1 (centres undefined) | 3% | -32 | 2 | -1.2 | -4
COc1ccc(-c2[nH]c(-c3cccc(OC)c3)nc2SCC(=O)NCc2ccco2)cc1 | 13% | -15 | 7 | / | -5 | Arbovirus inh repeat=-20
CCOC(=O)c1c(C)n(C)c2ccc(OC)c(NC(=O)CN3CCN(C4CCCCC4)CC3)c12 | -3% | 5 | 16 | 0.5 | 13
O=C(CC(C(=O)O)P(=O)(c1ccccc1)c1ccccc1)c1ccc(Br)cc1 (centres undefined) | -1% | / | -13 | -0.2 | /
Cc1ccc(NC(=O)COC(=O)CCC(=O)c2cccs2)cc1S(=O)(=O)N1CCOCC1 | -2% | 4 | -4 | -0.8 | 0
C[C@@H](C(=O)Nc1ccc2ccccc2c1)[C@H]1C[C@]1(C)[C@H](NS(=O)(=O)c1ccccc1)c1ccccc1 | 13% | -25 | -7 | / | 2
Cc1[nH]c(=O)[nH]c(=O)c1S(=O)(=O)N1CCCC(C(=O)NCCc2ccccc2)C1 (centres undefined) | 2% | -69 | -5 | -1.7 | 11
C(=N\Nc1nc(-c2ccccc2)cs1)/c1ccncc1 | -3% | / | 64 | 4.0 | 15

Four entries picked at random from the list so far:
SMILES | Mtb growth | YopH PTP inh | Mtb betalactam | RecA intein inh | Arbovirus inh | others
C(=N\Nc1nc(-c2ccccc2)cs1)/c1ccncc1 | -3% | / | 64 | 4.0 | 15
O=C(Nc1ccc(F)c(Cl)c1)C1CCCN(c2cnccn2)C1 (centres undefined) | / | / | 1 | -3.2 | /
CC(C)(C)NC(=O)CN(C(=O)CCC(=O)Nc1nccs1)c1cccc(C(F)(F)F)c1 | / | / | 6 | 0.4 | /
Cn1c(=O)c(/C=C/c2ccc(F)cc2)nc2ccccc21 | 5% | / | / | 0.0 | -4

The list continues:
SMILES | Mtb growth | YopH PTP inh | Mtb betalactam | RecA intein inh | Arbovirus inh | others
O=C1C2C(C(=O)N1CCc1ccccc1)C1C=CC2C12CC2 (centres undefined) | -8% | 10 | 1 | 3.8 | 4
C=CCn1c(C)cc(C(=O)CSc2nnc(-c3cccc(S(=O)(=O)N(CC)CC)c3)o2)c1C | / | -44 | -10 | 1.4 | 15
O=S(=O)([N-]c1nc2ccccc2nc1-n1cc[n+](Cc2ccccc2)c1)c1ccc(Cl)cc1 | 4% | / | 5 | -29 | /
CCCCn1c(SCC(=O)N2c3ccccc3Sc3ccccc32)nc2c1c(=O)n(C)c(=O)n2C | 44% | -82 | 79 | 22 | -3
Cc1ccc(-c2[nH]c3ccccc3c2SCCN)cc1 | 0% | / | -9 | 8.8 | /
CCOC(=O)Cc1csc(NC(=O)c2cnc3scc(C)n3c2=O)n1 | -10% | -13 | ? | 0.6 | /
O=C(COC(=O)c1ccc(S(=O)(=O)NCc2ccco2)cc1)Nc1ccc(Cl)cn1 | 9% | / | 7 | -2.7 | 4
N#CC1=C(S)N(c2ccccc2)C(c2ccc(-c3cccc(Cl)c3)o2)NC1=O (centres undefined) | 4% | -1 | 10 | 10 | -13
C=CCNC(=O)CN1CCN(Cc2ccc3c(c2)OCO3)CC1 | / | / | 1 | -3.5 | /
CSc1nc2c(c(=O)n1Cc1ccccc1)SC(C)C2 (centres undefined) | -2% | 5 | 9 | 1.5 | -3
O=C(C1=C(O)C(=O)N(CCCN2CCOCC2)C1c1ccc(Cl)cc1)c1cc2ccccc2o1 (centres undefined) | / | / | 2 | 6.3 | /
Cc1ccc(OC(C)C(=O)Nc2ccncc2)cc1 (centres undefined) | / | / | 1 | 0.9 | /
Cn1nc(C(C)(C)C)c([N+](=O)[O-])c1C(=O)N1CCCCCC1 | / | / | 6 | -1.2 | /
O=C(OCn1ncc(Br)c(Br)c1=O)c1c(F)cccc1F | ? | -12 | 100 | 53* | -45
CCOC(=O)C(NCc1ccccc1OC)(NC(=O)c1ccccc1)C(F)(F)F (centres undefined) | 9% | 30 | 6 | / | -5
Cc1ccc2c(c1)[C@H]1OCC[C@H]1[C@@H](c1ccncc1)N2 | -7% | -62 | -2 | -1.3 | 3
Cc1ccc2oc(C(=O)NCC(c3ccco3)N(C)C)c(C)c2c1 (centres undefined) | / | / | -1 | -0.8 | /
Nc1c(C(=O)N/N=C/c2ccc([N+](=O)[O-])cc2)cnn1-c1ccccc1 | 9% | / | -9 | 0.8 | /
CC(=O)c1c(N)nc2n(c1=O)CCCCC2 | 6% | -31 | -8 | 1.4 | 0
Cc1cc(C)c(NC(=O)CN(c2ccccc2)S(=O)(=O)N(C)C)c(C)c1 | 15% | -3 | -4 | 1.0 | 3
CC1(C(=O)CSc2nc3ccccc3s2)CCC(=O)O1 (centres undefined) | -1% | -41 | -18 | -2.7 | 2
O=C(Nc1ccccc1O)C(c1ccccc1)c1ccccc1 | / | / | 4 | 11 | /
O=c1cc(N2CCc3ccccc3C2)[nH]c(=O)n1Cc1ccc(F)cc1 | 3% | 7 | -5 | 0.6 | -8
O=C(NCc1ccccn1)c1cc(-c2ccc(Cl)cc2)nc2ccccc12 | 5% | -32 | ? | -1.2 | 0
CC(=O)c1ccc(OCCCC(=O)OCC(=O)N2CCN(c3ccccc3)CC2)cc1 | 26% | -41 | / | 0.9 | 4
Cc1nc2ccccc2n1CCc1nc2c3ccccc3nc(SCC#N)n2n1 | / | -5 | 2 | -1.0 | -8
Cc1ccccc1N1C(=O)C2C3CCC(O3)C2C1=O (centres undefined) | / | / | 3 | -2.8 | /
Cc1ccc(S(=O)(=O)N(C)C)cc1NC(=O)Cn1c(CN2CCOCC2)nc2ccccc2c1=O | 1% | / | -3 | -3.5 | 11
COc1ccc(/C=C2/C(=N)N3N=C(CC(=O)N4CCCC4)SC3=NC2=O)cc1OC | / | / | -4 | -0.3 | /
COc1cc(C2CC(=O)c3c(ccc4ccccc34)N2)ccc1O (centres undefined) | -1% | 10 | 66 | 4.0 | 7
CC(CNC(=O)Cn1ccc2cc(S(=O)(=O)N3CCCC3)ccc21)c1ccccc1 (centres undefined) | / | / | -1 | -1.5 | /
Fc1cccc(NC(=S)N2CCN(c3ccccn3)CC2)c1 | / | / | 2 | -0.8 | /
COc1ccccc1NS(=O)(=O)c1cc(NC(=O)CN2C(=O)NC3(CCCC3)C2=O)ccc1C | / | / | -1 | 0.6 | /
COc1ccc(SCCc2ccncc2)cc1 | -4% | / | -2 | -0.1 | 3
Cc1ccc(NC(=O)NCC2CC2(Cl)Cl)cc1 (centres undefined) | / | / | -1 | 0.5 | /
COc1ccc(C)cc1NC(=O)c1cccc(C(=O)Nc2cc(C)ccc2OC)c1 | / | / | 4 | -1.3 | /
CCOc1ccc(C(=O)NC2CCN(C(=O)N3CCCC3)CC2)cc1 | -11% | -17 | -4 | / | 3
CCCOc1ccc2cc(-c3ccccn3)c(=O)oc2c1 | -3% | -31 | 0 | -12 | 1
COc1ccc(CCN2C(=O)C(Oc3ccccc3C)C2c2ccc3c(c2)OCO3)cc1 (centres undefined) | 4% | -14 | -5 | -7.8 | -3
Cn1c(=O)c(=O)n(C)c2cc(S(=O)(=O)N3CCC(Cc4ccccc4)CC3)ccc21 | -7% | -51 | 13 | 2.5 | -13
Cc1ccc(OCCOc2ccc(Cl)cc2Cl)c([N+](=O)[O-])n1 | 13% | -10 | -1 | -2.4 | 14
CC1(C)OC(=O)N(CCC(=O)Nc2cccc(F)c2)C1(C)O (centres undefined) | 0% | / | -8 | -1.5 | 5
c1ccc(NCc2ccncc2)cc1 | / | / | -13 | -0.8 | /
CC(C)C(=O)N1CCN(c2ccccc2NC(=S)NC(=O)c2ccco2)CC1 | / | / | 2 | -0.8 | /
O=C1NC(=O)C(=Cc2ccc(-c3cc(Cl)ccc3[N+](=O)[O-])o2)C(=O)N1 | 19% | / | / | 1.3 | -2
COc1ccc(Cn2c(C)nc3ccc([N+](=O)[O-])cc3c2=O)cc1 | / | / | 8 | -2.0 | /
COc1ccc2nc3oc(C(=O)NCc4cccs4)cc3cc2c1 | 12% | -33 | 1 | -2.4 | -14
CCCC1=C(C(=O)OCC)C(c2c(C)nn(-c3ccccc3)c2Cl)C(C#N)=C(N)O1 (centres undefined) | 3% | -12 | -12 | 6.9 | 5

Filtered by structure, those above with two or more sulfur atoms.
SMILES | Mtb growth | YopH PTP inh | Mtb betalactam | RecA intein inh | Arbovirus inh | others
Cc1ccc(NC(=O)COC(=O)CCC(=O)c2cccs2)cc1S(=O)(=O)N1CCOCC1 | -2% | 4 | -4 | -0.8 | 0
C=CCn1c(C)cc(C(=O)CSc2nnc(-c3cccc(S(=O)(=O)N(CC)CC)c3)o2)c1C | / | -44 | -10 | 1.4 | 15
CCCCn1c(SCC(=O)N2c3ccccc3Sc3ccccc32)nc2c1c(=O)n(C)c(=O)n2C | 44% | -82 | 79 | 22 | -3
CCOC(=O)Cc1csc(NC(=O)c2cnc3scc(C)n3c2=O)n1 | -10% | -13 | ? | 0.6 | /
CSc1nc2c(c(=O)n1Cc1ccccc1)SC(C)C2 (centres undefined) | -2% | 5 | 9 | 1.5 | -3
CC1(C(=O)CSc2nc3ccccc3s2)CCC(=O)O1 (centres undefined) | -1% | -41 | -18 | -2.7 | 2

Following part.
SMILES | Mtb growth | YopH PTP inh | Mtb betalactam | RecA intein inh | Arbovirus inh | others
COc1cccc(NC(=O)C2COc3ccccc3O2)c1 (centres undefined) | / | / | 13 | 1.3 | /
Cc1ccc(Nc2nc(N)nc(CSc3ncccn3)n2)cc1 | 9% | -9 | 1 | 0.4 | 9
CCOc1ccc(C2C3=C(CC(C)(C)CC3=O)N(CC(=O)O)C3=C2C(=O)CC(C)(C)C3)cc1OCC | / | / | -6 | -1.7 | /
CCOC(=O)N1CCN(S(=O)(=O)c2ccc3[nH]c(=O)oc3c2)CC1 | -13% | / | -7 | -6.4 | /
CCn1cc(CN2CCC(n3nccc3NC(=O)CCCc3ccccc3)CC2)c(C)n1 | / | / | 9 | -1.1 | /
COc1ccccc1CNC(=O)CN(C)S(=O)(=O)c1ccc2c(c1)c(=O)n(C)c(=O)n2C | / | / | 7 | -0.5 | /
CC12CC(c3ccccc3O1)C(C(=O)OCc1ccccc1)C(=O)N2 (centres undefined) | 5% | -11 | ? | -0.3 | 2
NS(=O)(=O)c1ccc2nc(NC(=O)c3ccc4ncsc4c3)sc2c1 | / | / | -5 | 2.0 | /
COc1ccccc1/C=C/C=N/NC(=O)Cc1cccs1 | 7% | -8 | -1 | -0.2 | 2
O=C(c1ccncc1)N1CCN(S(=O)(=O)c2cccc(F)c2)CC1 | / | / | -8 | -2.0 | /
COc1cc(OC)cc(-c2nnc(SCC(=O)N3c4ccccc4Sc4ccccc43)o2)c1 | -5% | -3 | 5 | -0.4 | /
O=C(O)c1ccc(NS(=O)(=O)c2ccc(Cl)c(C(=O)Nc3ccccc3[N+](=O)[O-])c2)cc1 | / | / | 1 | -4.7 | /

An excerpt. The share of hits here may be higher or lower than overall.
